gsp antag = qHTS for Antagonists of gsp, the Etiologic Mutation Responsible for Fibrous Dysplasia/McCune-Albright Syndrome: qHTS; gsp-mutant cells, cAMP HTRF, 30 min; control for the full effect not named in the record; Potency, µM (doses to about 76.9 µM), for the others: at the top dose activity change, negative = inhibition, actives largely listed as inhibitors; 0.4% of 340,000 active; active = falling curve of any shape with a large fitted effect; inconclusive = falling curve, mostly with a smaller effect; inactive = flat or rising curve; cell line not stated here;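 further: intracellular cAMP measured with PDE inhibitor Ro 20-1724 present during compound exposure; potency means the concentration at half of the fitted maximal effect; on the % scale 0 is the no-effect control and ±100 the full control effect; nearly all actives have a fitted effect of over 65% in size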
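G418-selected cells were plated in DMEM/10% FBS for 16-24 h at 37C, then treated with compounds plus the PDE inhibitor […] (300 uM solution added) for 30 min at 37C. Intracellular cAMP was measured by HTRF after 30 min lysis at room temperature.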
TRPV1 PAM = HTS Assay for Compounds that Act as Potentiators of the Vanilloid Receptor 1; potentiation, % at 8.33 µM; 0.02% of 320,000 active; TRPV1-expressing cells, Fluo-8 calcium influx, capsaicin EC20 potentiation; host cell line not named in the record; control for the full effect not named in the record; Transient receptor potential cation channel subfamily V member 1 (Homo sapiens), Q8NER1; active means potentiation above 80%; inconclusive means 30% to 80%; inactive means below 30%; further: 0% is about no effect
Target sequence (Q8NER1 whole entry, looked up): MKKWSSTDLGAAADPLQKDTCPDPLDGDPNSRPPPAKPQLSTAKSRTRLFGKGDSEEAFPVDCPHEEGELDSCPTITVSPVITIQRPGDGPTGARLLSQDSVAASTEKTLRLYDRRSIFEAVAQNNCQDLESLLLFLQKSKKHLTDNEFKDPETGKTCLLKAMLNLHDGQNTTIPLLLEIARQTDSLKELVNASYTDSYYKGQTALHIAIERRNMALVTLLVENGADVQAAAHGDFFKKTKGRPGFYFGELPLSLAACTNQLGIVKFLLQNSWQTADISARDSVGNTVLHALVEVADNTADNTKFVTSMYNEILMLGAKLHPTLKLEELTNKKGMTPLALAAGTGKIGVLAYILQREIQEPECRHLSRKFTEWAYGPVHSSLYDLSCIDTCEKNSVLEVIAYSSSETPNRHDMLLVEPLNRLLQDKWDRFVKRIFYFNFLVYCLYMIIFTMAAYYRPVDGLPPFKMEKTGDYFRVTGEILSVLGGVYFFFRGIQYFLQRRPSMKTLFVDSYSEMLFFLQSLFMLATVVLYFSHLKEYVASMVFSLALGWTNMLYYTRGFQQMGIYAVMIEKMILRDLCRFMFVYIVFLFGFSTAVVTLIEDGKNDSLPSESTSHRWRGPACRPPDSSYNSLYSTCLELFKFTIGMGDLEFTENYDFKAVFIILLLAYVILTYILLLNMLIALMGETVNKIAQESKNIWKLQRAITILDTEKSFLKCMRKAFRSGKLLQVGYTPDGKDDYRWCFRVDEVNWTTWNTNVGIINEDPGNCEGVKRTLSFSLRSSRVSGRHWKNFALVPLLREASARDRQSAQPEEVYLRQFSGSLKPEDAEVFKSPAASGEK
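TRPV1-expressing cells were cultured overnight at 35.5C and loaded with Fluo-8 calcium dye for 40 to 90 min at room temperature. After a 10 s baseline, compound was added and calcium influx was read kinetically for 3 min (ex 480/em 520 nm).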
Menin MLL FP FL = qHTS Assay for Inhibitors Targeting the Menin-MLL Interaction in MLL Related Leukemias: Competition With Fluorescein Labeled MLL-derived Peptide. 290,000 tested, under 10 active. Fluorescence polarization, fluorescein-MLL peptide displacement from menin. FP activity change, % at 61.4 µM. AID 1766, 2009; inconclusive = falling polarisation curve, or a change in total fluorescence; inactive = total fluorescence flat and polarisation flat or rising; no compound was filed as active; the % refers to the polarisation; negative = inhibition;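 further: % of control where 0% means no effect; inhibitors lower the polarisation; unlabelled MLL peptide was the positive control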
Sfp PPTase inh = qHTS Assay for Inhibitors of Bacillus subtilis Sfp phosphopantetheinyl transferase (PPTase). 3.5% of 310,000 active. 4'-phosphopantetheinyl transferase ffp (Bacillus subtilis), Q9F4F7. Potency, µM, inactives show max response, negative = inhibition, most hits filed as inhibitors. Biochemical Sfp PPTase activity, qHTS; active means well fitted inhibition curve with a large enough effect; inconclusive means small, poorly fitted or top-dose-only effect, or another doubt; inactive means no such curve, though single readings can be large or run the other way;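 further: the enzyme is Sfp with the accession as filed and its product quenches rhodamine fluorescence; potency means the concentration at half of the fitted maximal effect; 0% = enzyme reaction without inhibitor and -100% = no enzyme wells; top concentration of the series not given in the record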
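With Hepes-Na pH 7.6 buffer containing 10 mM MgCl2, Sfp (15 nM) modified BHQ-2-YbbR (12.5 uM) using rhodamine-CoA (5 uM). Two reads 30 minutes apart at 525/598 nm yielded each well's rate.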
CtBP-E1A blk = qHTS Assay for Inhibitors of the CtBP/E1A Interaction; CtBP / adenovirus E1A interaction (AlphaScreen); 0.49% of 340,000 active; AID 651724, 2012; activity change, % (concentration not given with the values); AlphaScreen GST-E1A/His-CtBP binding, 1536-well; hits give low values; control for the full effect not named in the record; in the data active means activity change below about -65%; inconclusive means about -30% to -65%; inactive means above about -30%; further: on the % scale 0 is the no-effect control and ±100 the full control effect
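In 5 uL wells, 23 nL compound meets equimolar GST-E1A and His-CtBP (5X stock 125 nM each) for 2 h, 37 °C. Beads (5X, 50 ug/mL) then 1 h, 37 °C, dark.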
ClpP mod = qHTS Assay for Activators of ClpP | ATP-dependent Clp protease proteolytic subunit (Bacillus subtilis (strain 168)), P80244 | purified B. subtilis ClpP, FRET peptide cleavage, 20 min | Potency, µM (series often up to 57.5 µM), inactives show at the highest dose activity change, negative = active | 1.9% of 340,000 active; active = well fitted falling curve with a large enough effect; inconclusive = small, poorly fitted or top-dose-only effect; inactive = no such curve, though single readings can be large or run the other way; further: potency means the concentration at half of the fitted maximal effect; the source files actives as falling curves though it sought activators and does not explain the sign; nearly all actives have a fitted effect of over 65% in size; many hits overshoot -100%
Target sequence (P80244 whole entry, looked up): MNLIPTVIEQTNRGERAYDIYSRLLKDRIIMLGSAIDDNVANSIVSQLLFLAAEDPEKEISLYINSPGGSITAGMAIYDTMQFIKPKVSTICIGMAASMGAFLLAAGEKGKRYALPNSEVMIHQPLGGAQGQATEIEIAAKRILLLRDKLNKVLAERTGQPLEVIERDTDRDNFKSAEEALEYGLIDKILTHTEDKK
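ClpP 10 microg/mL final, pH 8 Tris/KCl buffer with BSA, glycerol, Tween-20; compound pinned in; FRET-FV substrate; RT 20 min; Ex320/Em430; ΔFRET vs ADEP 5.8 microM, DMSO, no enzyme.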
gsp agonist = qHTS for Agonist of gsp, the Etiologic Mutation Responsible for Fibrous Dysplasia/McCune-Albright Syndrome: qHTS; 0.13% of 340,000 active; Potency, µM (titrated, usually from 76.9 µM), for the others: top-dose activation (cAMP increase), hits mostly activators; gsp mutant cells, cAMP HTRF, 30 min; control for the full effect not named in the record; active = well fitted activation curve with a large enough effect; inconclusive = small, poorly fitted or top-dose-only effect, or another doubt; inactive = no such curve, though single readings can be large or run the other way; cell line not stated here;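 further: phosphodiesterase inhibitor Ro 20-1724 added with compounds to block cAMP breakdown; potency means the concentration at half of the fitted maximal effect; nearly all actives have a fitted effect of over 60% in size; about a fifth of the inactives were tested at one dose only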
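Cells in DMEM/10% FBS with G418 were pretreated with compounds in DMSO plus […] (300 uM stock) for 30 min at 37C. cAMP was measured by HTRF (cAMP-d2 plus anti-cAMP antibody-K) after 30 min at room temperature.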
The depositor's hits bear a star; ? = inconclusive; . = not tested or not shown; & = joins results of further samples; [ ] = remark or other dose. No enrichment for hits. Share with any hit: about 5.3%.

SMILES | gsp antag | TRPV1 PAM | Menin MLL FP FL | Sfp PPTase inh | CtBP-E1A blk | ClpP mod | gsp agonist
CCOc1cc(N2CCOCC2)c(OCC)cc1NC(=O)c1ccc(F)c(S(=O)(=O)N2CCOCC2)c1 | -21.9% | ? | . | . | 7.9 | 12.4% | 6.4%
COc1cccc(-c2nc(CS(=O)CC(=O)NCc3ccccc3)c(C)o2)c1 (stereo not drawn) | -7.8% | ? | 1.9 | -8.5% | -0.5 | -11.4% | 9.7%
N#C/C(=C\c1c(Oc2ccc(Cl)cc2)nc2ccccn2c1=O)C(=O)NC1CCS(=O)(=O)C1 (stereo not drawn) | -1.1% | -13.5 | -2.7 | 9.4% | 0.8 | -3.1% | 14.6%[15.4 µM]
COc1ccc(CNCCS(=O)(=O)NN2CCOCC2)cc1 | 6.5% | . | . | . | 9.2 | -0.5% | .
O=C(CSc1ccc2c(c1)OCCO2)N1CCN(c2ccccc2)CC1 | 5.1% | -11.9 | . | . | -3.3 | 0.0% | -26.5%
CCOC(=O)c1sc(NC(=O)COc2ccc3c(c2)OCO3)nc1C | 10.2% | 4.0 | 0.6 | 20.1% | -3.1 | . | -2.7%[15.4 µM]
COc1ccc(C2OC(=O)CC2C(=O)NC2CCCC(C)C2C)cc1OC (stereo not drawn) | 3.4% | 28.1 | 0.1 | 6.5% | 5.3 | 0.2% | -14.7%
O=C(N/N=C/c1ccco1)c1ccc(OCc2ccccc2)cc1 | 2.7% | -17.3 | 6.0 | 2.9% | 7.5 | -2.0% | -2.7%[15.4 µM]
O=C1CN(CC(=O)Nc2ccc(Cl)cc2)CCN1 | -0.1% | 1.6 | 2.5 | 7.7% | -1.8 | -0.6% | 0.6%
CCOC(=O)C1=C(C)NC(C)=C(C(=O)OCC)C1c1ccc([N+](=O)[O-])s1 | -7.6% | 2.0 | 3.6 | 5.6% | -0.6&-6.2 | -0.3% | -38.1%[inhibitor]
COC(=O)c1ccc(CSc2nnc3ccccn23)o1 | 1.2% | ? | 6.7 | 1.2% | 17.4 | 0.0% | -1.4%
O=C(Oc1ccccc1)c1ccc(COC(=O)c2cnccn2)cc1 | 16.9% | -5.2 | 0.9 | -0.5% | 0.0 | 0.1% | -12.9%
Cc1ccc(NC(=O)/C(=C/c2cccs2)NC(=O)c2ccco2)c(C)c1 | 6.2% | 9.8 | 4.4 | 8.1% | -4.7 | -1.3% | 2.6%
Cc1ccc(CNCc2ccc3c(c2)OCO3)c(C)c1 | -2.1% | 4.9 | 2.2 | -14.4% | -5.8 | . | -37.9%[inhibitor]
O=C(NCCc1c[nH]c2ccccc12)c1cccc(Br)c1 | -6.9% | -2.7 | 5.0 | 3.9% | -0.8 | . | -12.2%
COc1ccc(-c2cc3nc4ccccc4n3c(N)c2C#N)cc1 | -5.1% | . | 1.6 | -4.2% | 0.3 | 3.7% | ?
C[C@@H]1CN([C@@H](C)CO)S(=O)(=O)c2ccc(-c3ccc(C(=O)N(C)C)cc3)cc2O[C@@H]1CN(C)Cc1ccccc1C(=O)O | . | . | . | . | -0.9 | 0.9% | ?
Cc1ccc(NC(=O)C2CC(=O)N(c3ccc4c5c(cccc35)CC4)C2)cc1 (stereo not drawn) | -3.3% | -0.2 | -2.1 | -1.4% | -2.8 | 1.1% | -27.1%
CS(=O)(=O)N1CCC(NC(=O)Nc2ccc(OC(F)(F)F)cc2)CC1 | 4.0% | -23.4 | . | . | 14.1 | -1.0% | -15.9%
O=C(COC(=O)C1=COCCO1)Nc1ccc(F)cc1 | 3.5% | 25.3 | . | . | -6.9 | -2.3% | -0.7%
CC(C)(C)NC(=O)CN(C(=O)C1CSC(=O)C1)c1ccccc1F (stereo not drawn) | -0.6% | 0.4 | -8.8 | 14.7% | 0.5 | . | -33.4%[inhibitor]
CC1(C)Cc2nc3n[nH]c(N)c3cc2CO1 | -1.0% | 5.5 | 4.1 | 6.1% | 1.9 | 0.3% | 6.5%
CC(OC(=O)c1cccs1)C(=O)NCC1CCCO1 (stereo not drawn) | 11.4% | -3.1 | 1.5 | -12.5% | 2.6 | -1.9% | -29.4%
CCc1ccc(C(=O)NC(CC(C)C)C(=O)O)cc1 (stereo not drawn) | 3.1% | -7.3 | 0.8 | -0.7% | 3.0 | 1.6% | ?
Cc1oc2c(CN3CCOCC3)c(O)ccc2c(=O)c1-c1ccc(Cl)cc1 | -9.2% | -4.4 | -1.6 | -7.4% | 0.0 | 3.9% | -38.9%[inhibitor]
CC(=O)c1sc(NC(=O)CCc2ccccc2)nc1C | . | . | . | . | -9.3 | -5.7% | ?
COc1ccc(-c2ccc3c(c2)S(=O)(=O)c2cccc(C(=O)NCCOc4ccccc4Cl)c2C3=O)cc1OC | 7.8% | . | . | . | -11.5 | -4.5% | .
c1ccc(CN2CCCC3(CCCN(Cc4nc(CC5CC5)no4)C3)C2)cc1 (stereo not drawn) | -5.5% | -5.8 | -4.6 | 18.6% | . | -3.9% | 21.2%
O=C(c1ccccc1)C(Nc1ccccn1)c1ccccc1 (stereo not drawn) | -4.3% | -6.0 | -4.3 | 4.5% | -9.6 | ? | 8.4%[15.4 µM]
CCN(CC)S(=O)(=O)c1cc(NC(=O)C(CC(C)C)NC(N)=O)ccc1C (stereo not drawn) | 9.0% | -10.1 | 4.2 | 12.2% | 6.9 | -0.1% | -33.8%[inhibitor]
COc1ccc(S(=O)(=O)N2CCCCC2C(=O)O)cc1 (stereo not drawn) | -7.2% | -5.4 | 1.4 | 15.8% | 5.5 | 0.2% | 27.9%
COc1ccc(CC(=O)Nc2cc(S(=O)(=O)N3CCCC3)ccc2Cl)c(OC)c1 | ? | 2.7 | . | . | -0.7 | -1.3% | 0.8%
Cn1c(N)c(C(=O)COC(=O)Cn2cc(C(F)(F)F)ccc2=O)c(=O)n(C)c1=O | 2.4% | -2.6 | -2.2 | 24.3% | -1.0 | 1.3% | ?
O=C(NC1CCN(C(=S)Nc2ccc(F)cc2)CC1)C1CCCCC1 | -15.0% | 15.8 | -3.5 | 5.1% | -10.5 | . | 7.0%[15.4 µM]
CC(C)CCn1c(SCC(N)=O)nc2c1c(=O)n(C)c(=O)n2C | 11.5% | 4.7 | 2.2 | -4.4% | 27.9 | 1.7% | ?
CN1CCN(CC(C)(C)NS(=O)(=O)c2ccc(Cl)cc2)CC1 | 11.3% | -0.4 | 1.2 | 18.7% | 2.1 | -0.9% | 17.0%
Cc1c(NC(C)c2ccccc2O)c(=O)n(-c2ccccc2)n1C (stereo not drawn) | 8.7% | 6.3 | -2.6 | 5.5% | 14.2 | 0.1% | -30.5%
O=C(CCC(=O)Nc1ccccc1)N/N=C/c1ccncc1 | 5.7% | 4.2 | -0.5 | ? | -4.8 | 0.1% | 15.7%
CC(=O)c1csc(-c2ccccc2)n1 | 4.2% | -16.2 | -0.5 | 5.3% | -2.8 | . | ?
Cc1ccccc1C1=Nn2c(nnc2-c2ccco2)SC1 | -3.8% | -14.3 | -1.0 | ? | . | 1.9% | ?
O=C(NCc1ccccn1)c1ccc(Cl)c(S(=O)(=O)N2CCCCCC2)c1 | -0.4% | -10.9 | . | 10.5% | -13.2 | -3.7% | -56.1%[inhibitor]
COc1cc(N=Cc2c(O)c3ccccc3oc2=O)c(OC)cc1Cl | 1.8% | -11.8 | ? | 3.8% | 6.3 | . | -61.6%[inhibitor]
Cc1ccc(S(=O)(=O)NC(=NCC(=O)O)c2ccccc2)cc1 | 3.5% | -2.6 | 0.7 | 10.5% | -5.2 | -2.9% | 4.8%
C=CCSc1ncccc1C(=O)NCCc1ccccc1 | -1.8% | 0.7 | 5.9 | 12.1% | 9.1 | . | -27.7%
C=CCn1c(C2CC2)n[nH]c1=S | -3.3% | 8.8 | -1.4 | -22.6% | . | -2.5% | 1.4%
O=C(NCCC1=CCCCC1)c1cccc(S(=O)(=O)N2CCCCC2)c1 | 9.8% | 7.9 | . | . | 6.0 | 1.6% | -3.6%[15.4 µM]
O=C(O)CCN(CCC(=O)O)c1nnc(SCc2ccccc2)s1 | 20.0% | 4.8 | -2.9 | -0.9% | 4.7 | -0.5% | -13.3%
NC(=O)C1CCN(CC(=O)Nc2nccs2)CC1 | 3.3% | -0.9 | 0.0 | 6.2% | -2.9 | . | 22.1%
CN(C)C(=O)c1cc(C(=O)c2ccc(C(F)(F)F)cc2F)c[nH]1 | -2.5% | 13.8 | 1.0 | 12.1% | 3.7 | . | -5.1%[15.4 µM]
Cc1ccc(-c2[nH]ncc2CN2CCN(C(=O)c3cccs3)CC2)cc1C | -9.3% | -4.0 | 1.1 | -10.4% | 0.0 | -3.8% | -4.4%
Cc1oc(-c2ccccc2F)nc1CS(=O)(=O)CC(=O)NCCCN1CC(C)CC(C)C1 (stereo not drawn) | 18.1% | ? | . | -4.2% | -13.8 | -15.0% | -2.0%
O=C(NCC1CCCO1)c1ccc(Oc2ccc([N+](=O)[O-])cc2)cc1 (stereo not drawn) | -8.0% | -12.0 | 0.7 | 16.4% | . | 0.9% | -29.2%

Retrieved by compound from above, two records:
SMILES | gsp antag | TRPV1 PAM | Menin MLL FP FL | Sfp PPTase inh | CtBP-E1A blk | ClpP mod | gsp agonist
O=C(NCc1ccccn1)c1ccc(Cl)c(S(=O)(=O)N2CCCCCC2)c1 | -0.4% | -10.9 | . | 10.5% | -13.2 | -3.7% | -56.1%[inhibitor]
COc1cc(N=Cc2c(O)c3ccccc3oc2=O)c(OC)cc1Cl | 1.8% | -11.8 | ? | 3.8% | 6.3 | . | -61.6%[inhibitor]

Screening results as filed in PubChem.
